# Assay outcomes from PubChem.
# ugtP null kill – compounds lethal to S. aureus RN4220 ugtP deletion mutant. OD600 growth, 16 h; some inactives read as strong as hits. growth inhibition, % (no concentration beside the values). 330,000 compounds, 0.54% hits. AID 1259309;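 active means z-score under -3 and OD600 up to 0.15 on both plates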;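 further: plate controls were untreated wells for no effect and antibiotic for full effect; wells of about 80 µL received 100 nL stock; the first replicate is given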
# Sa RN4220 lethal – S. aureus RN4220 growth inhibition. 330,000 compounds, 0.33% hits. OD600, 16 h. inhibition, % (no concentration beside the values). AID 1259311;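 active means z-score of -3 or lower and OD600 up to 0.18 on both plates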;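 further: plate controls were untreated cells for no effect and reference antibiotic for full effect; stock transfer was 100 nL into about 80 µL; one replicate is shown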
# BJeLR viability – kills HRASV12-expressing BJeLR cells. inhibition, % (concentration not given with the values). AID 1554. 300,000 compounds, 0.17% hits. BJeLR (HRASV12) viability, CellTiter-Glo ATP luminescence, 48 h; reference of the scale not given here;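 active means replicate mean above 50%; inconclusive means above 50% but judged a plate artefact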;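 further: 50 nL library stock added to about 25 µL; numbers are from one replicate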
# Bead autofluor – compound fluorescence in toxin protease inhibitor counterscreen. compound autofluorescence counterscreen, microsphere flow cytometry; active compounds read high. 360,000 compounds, 3.1% hits. fluorescence intensity (no concentration beside the values). AID 624483;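 active means at least 3 SD above the mean of all compounds, about 16000 in these data; inconclusive means too few beads counted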;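 further: 100 nL of 1 mM stock went into each well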
# Mtb hypoxia inh – Mtb hypoxia fluorescent reporter inhibition | M. tuberculosis hypoxia-regulated fluorescent reporter, fluorescence | fluorescence inhibition, % (no concentration beside the values) | 300,000 compounds, 0.1% hits;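 active means 35 to 45% if threefold the growth effect, above 45% if 1.5-fold the growth effect; inactive means the rest, general growth blockers included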;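 further: wells of about 50 µL received 100 nL stock; 0% = vehicle wells and 100% = reference inhibitor wells; whole bacteria with a GFP reporter of the hypoxia response; strong numbers were not always called active; many hits fall short of the cut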
# PrP UTR inh – inhibition of PrP 5' UTR reporter expression | cell-based PrP 5' UTR mRNA reporter, plate reader | inhibition, % (test concentration not listed) | 340,000 compounds, 0.35% hits | AID 488862;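 active means every replicate at 50% or more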;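 further: 0 = median of the neutral control wells; tested in H4 reporter cells; numbers are from one replicate; inactives centre near -14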
# Mtb hypoxia inh growth – further read-out of Mtb hypoxia inh, marked with its call; growth inhibition, %; measured here: M. tuberculosis growth (absorbance);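 0% = vehicle and 100% = reference antibiotic; read after six days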
# * hit, by the source's call; ? = inconclusive; nt = not tested or not shown; & = joins results of further samples.
# Below each compound – ugtP null kill	Sa RN4220 lethal	BJeLR viability	Bead autofluor	Mtb hypoxia inh	Mtb hypoxia inh growth	PrP UTR inh
COc1cc(/C=C2\SC(=O)N(c3ccc(O)cc3)C2=O)cc(OC)c1OC
→ 22	7.9	-2	4797	12	4	-27
Cn1cccc1C(=O)NC(=O)COC(=O)CNC(=O)CNC(=O)c1ccc(Cl)cc1Cl
→ 5	5.8	7	4110	3	-2	-23
CC(=O)c1ccc(NC(=O)C(C)OC(=O)C2CCN(c3ccc(C(F)(F)F)cn3)CC2)cc1 (stereo not drawn)
→ 0	-4.8	-2	?	6	8	-14
CCC1CCCCN1CCCNC(=O)c1cn(C)c2ccc(S(=O)(=O)N(C)C3CCCCC3)cc2c1=O (stereo not drawn)
→ 0	1.6	5	4789	1	3	-9
CC(C)Cn1cnc2c(SCc3ccccc3Cl)nc(N)nc21
→ -2	3.6	nt	3985	3	9	-44
CCOC(=O)c1c(C2CC2)csc1NC(=O)COC(=O)c1ccc[n+]([O-])c1
→ -7	-4.8	3	6854	-4	-3	-15
O=C(NC1CCCCC1)c1ccccc1C(F)(F)F
→ 5	5.2	9	4262	2	0	-4
COc1ccc(Cl)cc1NC(=S)N1CCN(c2ccccn2)CC1
→ 1	-11	-10	2979	13	1	-2
CC1(N2CCCCC2)C(=O)c2ccccc2C1=O
→ 2	3.3	5	2635	2	-1	-16
COc1ccc(NC(=O)NCCCN2CCC(Cc3ccccc3)CC2)cc1
→ -1	0.0	5	5077	8	5	-23
CC(=NNC(=O)Nc1ccccc1)c1ccc(C)cc1
→ 14	2.5	nt	nt	12	3	nt
CN1C(=O)/C(=C\c2ccco2)N=C1c1ccc(Cl)cc1Cl
→ 1	0.7	8	5543	8	1	2
O=C(NCC1CCCO1)C1CC(c2ccc(Cl)c(Cl)c2)=NO1 (stereo not drawn)
→ -5	0.8	1	5754	-1	16	-5
CS(=O)(=O)Nc1ccccc1C(=O)OCC(=O)N1CCC(c2ccccc2)=N1
→ 5	4.2	nt	4112	33*	72*	-8
O=C(CSc1ccccc1)N1CCCC(N2CCN(c3ccc(F)cc3)CC2)C1 (stereo not drawn)
→ 2	0.3	13	4416	8	4	-6
CC12CN3CC(C)(CN(C1)C3c1ccc(Br)cc1)C2=O (stereo not drawn)
→ 2	0.7	-1	3729	12	5	-20
Cc1ccc(C(=O)N(CCC2=CCCCC2)c2c(N)n(Cc3ccccc3)c(=O)[nH]c2=O)o1
→ 1	1.1	-7	5952	10	1	-59
O=C(NCCc1ccc2c(c1)OCCO2)c1ccccn1
→ 6	1.4	-20	5595	3	6	-67
O=C(CCSc1ccc(Cl)cc1)NC12CC3CC(CC(C3)C1)C2
→ -29	-4.6	-11	6025	-2	8	-5
Nc1c(C(=O)Nc2cccc(C(=O)O)c2)sc2nc3c(cc12)CCCC3
→ nt	nt	6	5704	nt	nt	26
O=C(NC1CCCCC1)C1CCCN(S(=O)(=O)c2cnc[nH]2)C1 (stereo not drawn)
→ 3	2.6	-4	5470	nt	nt	-8
Cc1cccc(NC(=O)CN2C(=O)N/C(=C/c3cc(C)n(C(C)C)c3C)C2=O)c1
→ -6	2.2	-3	9487	-3	2	3
CCc1ccc(NC(=O)C(C)OC(=O)c2c(C)nn(Cc3ccccc3)c2Cl)cc1 (stereo not drawn)
→ 8	-2.4	-6	2082	2	-6	-22
CCN(CC)CCN(Cc1cc2cc3c(cc2[nH]c1=O)OCO3)C(=S)NCC(C)C
→ 6	4.2	-5	4666	20	6	-14
CCN1CCN(c2ccc(S(=O)(=O)N3CCOCC3)cc2NC(=O)/C=C/c2ccc(OC)cc2OC)CC1
→ 5	2.9	-5	?	0	2	-9
COc1cc(C=NNC(=O)c2nnn(-c3nonc3N)c2C(C)C)ccc1OCc1ccccc1
→ 1	4.9	nt	nt	-4	-9	nt
CC(C)CCN1CC(C(=O)NCc2ccccc2)CC1=O (stereo not drawn)
→ 11	6.1	-13	9282	11	-5	-16
COc1ccc(OC(C)C(=O)NCCC2=CCCCC2)cc1 (stereo not drawn)
→ 6	7.1	-2	5194	5	13	-22
CCCCn1c(N)c(N(Cc2ccccc2OC)C(=O)CSCC(=O)Nc2cccc(C)c2)c(=O)[nH]c1=O
→ nt	nt	6	4926	nt	nt	-30
CC(C)n1c(CN2CCN(C(=O)c3ccco3)CC2)nc2c1c(=O)n(C)c(=O)n2C
→ 17	3.5	-8	6213	7	9	-1
COc1ccc(Oc2ccc(C(F)(F)F)cc2NC(=O)c2ccc(F)cc2)cc1
→ 9	-1.3	-2	6230	-10	-6	-22
Cc1cc(NC(=O)C(C)SCC(=O)NCc2ccc(F)cc2)no1 (stereo not drawn)
→ 9	2.8	nt	2907	-1	-1	1
O=S(=O)(NCCc1ccncc1)c1ccc(F)cc1
→ 10	6.8	-9	3248	8	-1	-19
CC(C)CC(C(=O)O)N1C(=O)C2C3CC(C2C1=O)C1C(c2ccccc2)c2sc(=O)[nH]c2SC31 (stereo not drawn)
→ 8	2.0	3	2406	3	2	4
O=C(O)c1cc(-c2ccc(/C=N/N3C(=O)C4C5C=CC(CC5)C4C3=O)o2)ccc1Cl (stereo not drawn)
→ nt	nt	1	4158	nt	nt	4
COc1ccccc1N1CCN(C(=O)c2coc(=O)c(Br)c2)CC1
→ 1	-1.1	0	3728	8	7	-31
COc1cc(/C=N/NC(=O)c2cccnc2)ccc1OS(=O)(=O)c1ccc(F)cc1
→ nt	nt	9	20771*	nt	nt	8
CC1CCN(Cc2ccc(NC(=O)C3CCN(c4nnc(-n5cccc5)s4)CC3)cc2)CC1
→ 4	1.5	6	6530	nt	nt	9
COc1ccccc1-c1c(C)oc2c(CN3CCOCC3)c(O)ccc2c1=O
→ -6	1.7	-5	2939	-2	-4	-4
COc1cc(/C=C/C(=O)O)cc(S(=O)(=O)NC2CC2)c1OC
→ 5	3.7	4	2506	14	7	-20
Nc1c(Cl)cc(C2=NCCn3nc4cc(C(F)(F)F)ccc4c32)cc1Cl
→ -21	-3.9	3	4225	9	4	-6
O=C(NN=Cc1ccncc1)c1ccccc1OCc1ccc(Br)cc1
→ -3	4.7	nt	nt	-1	-6	nt
CCOC(=O)c1[nH]c2ccccc2c1NC(=O)NC1CCCCC1
→ 3	3.1	-16	4817	nt	nt	4
CCN(CC)S(=O)(=O)c1cc(OCC(N)=O)c(C)cc1Cl
→ 1	5.0	-18	2510	10	10	14
CCCC(=O)Oc1ccc(N(C(=O)CCC)S(=O)(=O)c2cccs2)cc1
→ nt	nt	5	4658	nt	nt	-15
Cn1c(/C(C#N)=C(\O)c2ccccc2Cl)nc2ccccc21
→ -3	2.7	2	5199	6	3	-15
COC(=O)c1cc(CNC(=O)c2cccc(Cl)c2Cl)ccc1OC
→ 4	1.4	-16	nt	6	13	nt
Cc1cccc(OCCCn2c(=O)sc3ccccc32)c1
→ 5	17	-6	2732	nt	nt	-52
Cc1ccc(C2=N/C(=C/N3CCOCC3)C(=O)O2)cc1
→ 3	1.4	0	3675	7	12	-30
COc1cc(C(=O)OCC(=O)c2cc(C)n(C)c2C)cc(NC(=O)c2ccco2)c1OC
→ -7	1.3	3	16042	10	5	-10
CC(C)[N+]1(C)C2CCC1CC(OC(=O)C(CO)c1ccccc1)C2 (stereo not drawn)
→ 5&-2&2	5.6&4.6&6.9	nt	nt	7&6&-2	5&5&0	nt
CNc1cc(CS(=O)c2ccccc2)nc(-c2ccccc2)n1 (stereo not drawn)
→ 0	3.2	3	5362	nt	nt	-21
O=C(O)c1cccc(S(=O)(=O)NNc2ccccc2C(F)(F)F)c1
→ 5	2.2	-13	6245	-5	2	-16
C/C(C=NNC(=O)Cn1nnnc1N)=C/c1ccc(C(C)C)cc1
→ -6	-5.8	nt	nt	-4	-1	nt
CCOc1ccc(-c2nc(C#N)c(N3CCN(Cc4ccccc4)CC3)o2)cc1
→ 17	0.0	-5	4529	14	6	5
Cc1cc(C)cc(NC(=O)CCc2ccc(C)o2)c1
→ nt	nt	12	4250	nt	nt	-14
O=C(Nc1ccc2c(c1)OCCO2)C1CCN(C(=O)c2ccc(Br)cc2)CC1
→ 4	1.1	0	8951	9	3	-40
Cc1cccc(C(=O)Nc2ccccc2C(=O)OCC(=O)Nc2ccc(C#N)cc2)c1
→ -20	2.0	-8	2496	0	-2	-13
O=C(COc1ccccc1)Nc1nc2cc3c(cc2s1)OCCO3
→ 14	3.0	9	5971	6	4	-24
CCOc1ccc(NS(=O)(=O)c2ccc(C(=O)NCC(c3ccco3)N3CCCC3)cc2)cc1 (stereo not drawn)
→ 4	-2.0	nt	4954	-3	-7	-15

# Remaining list, next part
# Below each compound – ugtP null kill	Sa RN4220 lethal	BJeLR viability	Bead autofluor	Mtb hypoxia inh	Mtb hypoxia inh growth	PrP UTR inh
Cc1cc(C)c(C)c(OCC(=O)O/N=C(\N)c2ccccn2)c1
→ nt	nt	-3	3086	nt	nt	-26
CCOC(=O)c1c[nH]c2c(C)cc(C)cc2c1=O
→ -7	0.2	-8	20267*	2	7	-21
O=C(COC(=O)c1ccccc1O)NCc1ccc2c(c1)OCO2
→ 2	0.5	nt	6222	1	-1	-22
COc1cc(C(=O)OCC(=O)NC2CCCC2)cc(OC)c1OC
→ 8	0.9	0	3785	-1	7	nt
CC(=O)Oc1c(S(=O)(=O)c2ccc(C)cc2)c(C)nn1-c1ccccc1
→ 4	8.0	-3	3429	nt	nt	5
CC(NC(=O)c1nc[nH]c1C(=O)NC(CCCCNC(=O)OC(C)(C)C)C(=O)OC(C)(C)C)C(=O)OC(C)(C)C (stereo not drawn)
→ -1	6.6	nt	nt	1	5	nt
COc1ccc(CCNC(=O)CSc2nc(=O)[nH]c3c2CCC3)cc1OC
→ 4	1.8	-3	6137	9	4	-17
C=CCC(CC(=O)NC(CO)Cc1ccccc1)C(=O)NC(COC(=O)C(CC=C)CC(=O)OC(C)(C)C)Cc1c[nH]c2ccccc12 (stereo not drawn)
→ 8&19&15&5&8&9&-37&-5	8.2&10&6.9&-12&0.9&-2.7&-1.3&9.6	nt	nt	2&7&15&13&15&-1&4&2	-13&7&8&8&9&11&7&8	nt
Cc1nn(C)c(NC(=O)c2ccc(Cl)cc2Cl)c1Br
→ 8	24	-1	3630	-10	2	-5
CC1OC(OC2C(COC3OC(CO)C(O)C(O)C3O)OC(OC3CC[C@]4(C)C(CC[C@@]5(C)C4CC=C4C6CC(C)(C)CC[C@]6(CO)C(O)C[C@]45C)C3(C)C)C(O)C2O)C(O)C(O)C1O (stereo partly drawn)
→ -7	3.4	nt	nt	-1	-1	nt
O=C(CCCN1C(=O)CCC1=O)Nc1ccc2c(c1)OCCO2
→ -1	-2.0	-8	4932	nt	nt	-15
O=S(=O)(Nc1ccccc1)c1ccc(NS(=O)(=O)c2c(F)cccc2F)cc1
→ -5	2.2	-23	5451	12	2	-25
O=C(c1cnc2sccn2c1=O)N(Cc1ccccc1)c1ccccn1
→ 3	-5.7	1	4623	6	10	-32
CC(C)(C)NC(=O)C(c1cccs1)N(Cc1ccco1)C(=O)c1csnn1 (stereo not drawn)
→ -1	-0.1	-2	3181	-2	-2	3
CN1CCN(CCCCOc2ccccc2-c2ccccc2)CC1
→ 10	4.6	4	2606	21	2	-10
O=C(Nc1cc(=O)[nH]c2nc(-c3ccccc3)nn12)c1ccccc1Cl
→ 0	5.1	16	3905	-8	-11	-20
O=C(COc1ccccc1C(=O)Nc1ccccc1)c1ccc(Br)cc1
→ 15	-8.2	-28	4347	-2	14	-5
C(/C=C/c1ccccc1)=N/N1CCN(c2ccccc2)CC1
→ nt	nt	0	17556*	nt	nt	-35
O=C(NC1CCCCC1)c1cc([N+](=O)[O-])ccc1N1CCOCC1
→ -4	-0.5	9	10321	0	8	-29
c1ccn2c(CNc3ncnc4sccc34)nnc2c1
→ 3	8.0	2	8931	17	9	-23
CCOC(=O)N1CCC(NC(=O)C2CCN(c3nc(-c4ccc(OC)cc4)no3)CC2)CC1
→ -9	-0.5	12	9367	0	6	-17
N=C1C(c2nc3ccccc3s2)=C(O)CN1Cc1ccco1
→ -8	0.8	15	9133	20	26	-33
N#Cc1ccc(N2C(=O)[C@@H]3C(C(=O)c4cnccn4)=NN[C@@H]3C2=O)cc1
→ -3	2.1	-4	5216	-4	2	nt
CC(Sc1nnc(C2CC2)n1C1CC1)C(=O)Nc1ccccc1C#N (stereo not drawn)
→ 6	4.3	nt	4092	22	7	-6
